PV pol inh: poliovirus RdRp elongation inhibitors, primary screen, biochemical, fluorescence polarization, total intensity | Genome polyprotein (Poliovirus type 1 (strain Mahoney)), P03300 | poliovirus polymerase elongation; active compounds read low | % elongation, % (compound at 16.7 µg/mL) | actives 0.66% (n = 150,000) | AID 588519, 2011; in the data active = % elongation below about 90%; also: some results filed as inactive read as strong as hits
Target sequence (P03300 1749-2209 limits assumed): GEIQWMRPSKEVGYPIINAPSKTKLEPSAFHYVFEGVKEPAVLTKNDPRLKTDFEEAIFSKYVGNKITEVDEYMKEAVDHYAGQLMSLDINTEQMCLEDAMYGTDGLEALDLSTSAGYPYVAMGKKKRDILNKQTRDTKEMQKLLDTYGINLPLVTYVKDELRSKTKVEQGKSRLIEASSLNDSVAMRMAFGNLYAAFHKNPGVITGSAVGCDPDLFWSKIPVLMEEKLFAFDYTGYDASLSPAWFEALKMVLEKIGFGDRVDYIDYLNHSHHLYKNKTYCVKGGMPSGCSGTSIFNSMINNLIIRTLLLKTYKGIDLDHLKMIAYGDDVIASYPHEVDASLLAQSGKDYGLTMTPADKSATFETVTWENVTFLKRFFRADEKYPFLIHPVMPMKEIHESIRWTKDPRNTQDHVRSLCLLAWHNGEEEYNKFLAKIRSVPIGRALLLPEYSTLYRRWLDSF
PV pol inh intensity: recorded beside PV pol inh, whose call it bears; % elongation; measured here: total intensity read-out; formula for this scale not given here;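 total fluorescence in place of polarization; lower means less elongation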
* = called active by the depositor.

molecule	PV pol inh	PV pol inh intensity
CC(=O)c1cccc(NC(=O)c2noc3c2CCCC3)c1	108	107
CCOC(=O)N1CCC(NC(=O)c2ccc3c(c2)N(Cc2ccc(Cl)cc2)C(=O)c2ccccc2S3=O)CC1 (stereo not given)	108	106
CCN1CCN(c2cc(C)c3cc(NC(=O)c4ccccc4F)ccc3n2)CC1	106	106
CCC(=O)N1CCc2cc(S(=O)(=O)NCCC(=O)Nc3ccc(N(CC)CC)cc3C)ccc21	104	106
Cn1c(NCc2cccc(Cl)c2)nc2ccccc21	105	107
Cc1ccc(C)c(CN2C(=O)c3ccccc3S(=O)c3ccc(C(=O)N4CCCCC4)cc32)c1 (stereo not given)	106	109
CCOc1ccc(C(=O)Nc2nnc(SCc3cc(=O)c4cc(C)ccc4[nH]3)s2)cc1	103	111
CCOC(=O)c1ccc2c(c1)N(Cc1ccccc1)C(=O)c1ccccc1S2	104	103
COc1cccc(Nc2cc(-c3ccccc3)nc(C)n2)c1	108	104
CC(=O)c1cccc(NC(=O)Nc2nnc(N3CCCC3)s2)c1	101	99
CCOc1ccccc1N(C)C(=O)C1CCCN(c2ncnc3c2nc2n3CCCCC2)C1 (stereo not given)	110	113
COCCCNC(=O)CSc1nc2cc3c(cc2c(=O)n1CCCC(=O)NCc1ccc2c(c1)OCO2)OCO3	107	110
COc1ccc(-n2ncc(C(=O)Nc3cccc(C(F)(F)F)c3)c2C2CCN(C(=O)OC(C)(C)C)CC2)cc1	108	106
COc1ccc(Nc2ncc(C(=O)Nc3cc(C)ccc3OC)c3ccccc23)cc1	108	111
O=C(NCc1ccc(Cl)cc1)c1cc2c(s1)-c1ccccc1SC2	108	110
CCN(CCCNC(=O)c1nn(-c2ccc(OC)cc2)c(=O)c2c1c1ccccc1n2C)c1ccccc1	114	112
O=C(Cn1ncn2nc(-c3cccs3)cc2c1=O)NCc1ccccc1Cl	105	108
COc1cc2c(cc1OC)C(COc1ccccc1OC)N(C(=O)CC(C)C)CC2 (stereo not given)	105	102
Cc1ccc(-c2noc(-c3ccc(N4CCCC4)c([N+](=O)[O-])c3)n2)cc1	99	95
CCOc1ccc(NC(=O)c2ccc3nc(Cc4ccccc4)oc3c2)cc1	106	111
COc1ccc(Cl)cc1NC(=O)NCCn1c(=O)oc2ccc(C)cc21	101	102
O=C(NCc1ccccc1)c1nc(-c2ccc(Cl)cc2)n2c1CCCCC2	102	96
CC1=C(C(=O)OC2CCCCCC2)C(c2c(F)cccc2Cl)CC(=O)N1 (stereo not given)	103	104
Cc1ccc(O)c(NC(=O)c2noc3c2CCCC3)c1	106	110

Entries listed so far that contain a thiophene ring, fused or not (2):
molecule	PV pol inh	PV pol inh intensity
O=C(NCc1ccc(Cl)cc1)c1cc2c(s1)-c1ccccc1SC2	108	110
O=C(Cn1ncn2nc(-c3cccs3)cc2c1=O)NCc1ccccc1Cl	105	108

Continued.
molecule	PV pol inh	PV pol inh intensity
CC(C)(C)OC(=O)N1CCC(c2c(C(=O)N3CCOCC3)cnn2-c2cccc(F)c2)CC1	108	103
Cc1ccccc1NC(=O)c1nc(S(C)(=O)=O)ncc1N(Cc1ccco1)Cc1sccc1C	103	103
CCCCSc1nnc2c(n1)OC(c1ccc(Br)s1)Nc1ccccc1-2 (stereo not given)	104	108
COc1cc(NC(=O)Cn2nnc(-c3ccc(C(F)(F)F)cc3)n2)c(C(=O)O)cc1OC	107	110
COc1ccc(-c2cc(C(=O)Nc3cc(C(F)(F)F)ccc3Cl)no2)cc1	100	101
COc1ccc(Cl)cc1NC(=O)Cc1ccc(NC(=O)N2CCCCc3ccccc32)cc1	103	111
COC(=O)Cn1c(SCCOc2ccccc2Cl)nc2ccccc21	104	108
COc1ccc(NC(=O)Cn2c(=O)n(CCCC(=O)NCc3ccccc3Cl)c(=O)c3ccccc32)c(OC)c1	105	108
COc1cc(OC)c(NC(=O)c2nn(-c3ccc(C)cc3)c(=O)c3c2c2ccccc2n3C)cc1Cl	108	108
CCN(Cc1ccccc1)C(=O)c1c(C)oc2ncn(C)c(=O)c12	105	108
O=C(CN1C(=O)COc2ccc(S(=O)(=O)N3CCOCC3)cc21)NCc1ccc(F)cc1	122	112
CCc1ccc(CNC(=O)c2ccc(-c3nc(CSc4ccc(C)cc4)c(C)o3)cc2)cc1	111	109

Sorted by molecular weight (ascending): part of the list above.
molecule	PV pol inh	PV pol inh intensity
CCN(Cc1ccccc1)C(=O)c1c(C)oc2ncn(C)c(=O)c12	105	108
COC(=O)Cn1c(SCCOc2ccccc2Cl)nc2ccccc21	104	108
COc1ccc(-c2cc(C(=O)Nc3cc(C(F)(F)F)ccc3Cl)no2)cc1	100	101
CC(C)(C)OC(=O)N1CCC(c2c(C(=O)N3CCOCC3)cnn2-c2cccc(F)c2)CC1	108	103
COc1ccc(Cl)cc1NC(=O)Cc1ccc(NC(=O)N2CCCCc3ccccc32)cc1	103	111
Cc1ccccc1NC(=O)c1nc(S(C)(=O)=O)ncc1N(Cc1ccco1)Cc1sccc1C	103	103
COc1cc(OC)c(NC(=O)c2nn(-c3ccc(C)cc3)c(=O)c3c2c2ccccc2n3C)cc1Cl	108	108

Continuation.
molecule	PV pol inh	PV pol inh intensity
CCN(c1ccc(Cl)cc1)S(=O)(=O)c1nnc(NC(=O)C(C)C)s1	109	102
CCOC(=O)c1cc(-c2ccc(F)cc2)n(CCC(=O)Nc2cc(OC)cc(OC)c2)c1C	107	113
O=C(NCc1ccccc1Cl)c1ccc2c(c1)nnn2C1CCCC1	104	109
CCOC(=O)c1ccc(NC(=O)c2c(N3CCCC3=O)c3cc(OC)ccc3n2C)cc1	102	109
CCOC(=O)c1cc(S(=O)(=O)N(C)c2ccccc2)[nH]n1	99	95
CCc1ccc(C(=O)c2cn(CC(=O)Nc3cc(OC)cc(OC)c3)c3ccc(CC)cc3c2=O)cc1	105	107
COc1ccc(C(=O)N2CCN(C(=O)COc3ccc(Br)cc3)CC2)cc1OC	108	107
Cc1ccc2c(c1)-c1c(cnc3cc(-c4ccc(Cl)cc4)nn13)CO2	104	109
CCCCNS(=O)(=O)c1ccc2nc(-c3cccnc3)cc(C(=O)NCCCOC(C)C)c2c1	106	110
Cc1ccc(N2C(=O)CS(=O)(=O)C23C(=O)N(C)c2ccccc23)cc1F (stereo not given)	106	111
Cc1ccc(CNC(=O)CN2C(=O)C3(SCC(=O)N3c3cc(C)cc(C)c3)c3ccccc32)cc1 (stereo not given)	105	113
Cc1ccc(CNC(=O)c2c(C)oc3nc(C)nc(N4CCOCC4)c23)cc1	107	113
COc1ccc(NC(=O)CSc2nc3ccccc3nc2N2CCC(C)CC2)cc1	108	113
Cc1ccccc1C(=O)Nc1nc(-c2nnn(-c3ccc(C(C)C)cc3)c2C)ns1	102	108
COc1ccc(NC(=O)COc2ccc(S(=O)(=O)NC3CCCCC3)cc2)cc1OC	111	113
Cc1ccc(N2CC(C(=O)NCc3nnnn3-c3ccc(C)c(C)c3)CC2=O)cc1C (stereo not given)	110	117
Cc1cc(OCC(=O)N2CCN(CCc3ccncc3)CC2)cc(C)c1Cl	108	110
Cc1ccc(CNC(=O)c2oc3c(c2C)-c2nn(Cc4ccc(Cl)cc4)cc2CC3)cc1	109	111
O=C(c1noc2c1CCCCC2)N1CCN(c2cccc(C(F)(F)F)c2)CC1	100	107
CCOc1ccc(NC(=O)c2oc3ccccc3c2NC(=O)c2cc(C)cc(C)c2)cc1	108	110
CCC(=O)N1CCc2cc(Br)cc(S(=O)(=O)Nc3ccc(C)cc3C)c21	104	104
Cc1ccc(CN2CCC(CNC(=O)Nc3ccc(C)c(C)c3)C2)cc1 (stereo not given)	111	111
Cc1ccc(C)c(OC(=O)CSc2nnc(-c3cccs3)o2)c1	105	107
Cc1cc(OC(C)C(=O)N(Cc2ccco2)Cc2ccccc2F)cc(C)c1Cl (stereo not given)	104	111
O=C(Nc1c(C(=O)N2CCN(c3ccccc3F)CC2)oc2ccccc12)c1ccc(Br)o1	103	108
CCn1cc(C(=O)NCCCN(CC(C)C)CC(C)C)c(=O)c2cc(S(=O)(=O)N3CCc4ccccc4C3)ccc21	105	107
Cc1ccc(NC(=O)c2nc(S(C)(=O)=O)ncc2N(Cc2ccco2)Cc2ccccc2F)c(C)c1	104	106
CCOC(=O)c1cccc(NC(=O)CC(c2ccc(F)cc2)N2Cc3ccccc3C2=O)c1 (stereo not given)	113	116
CCCOc1ccc(CNC(=O)C(C)n2nc(C)n3c(cc4occc43)c2=O)cc1 (stereo not given)	110	113
Cc1cccc(C)c1NC(=O)C1CCCN1S(=O)(=O)c1ccccc1 (stereo not given)	105	110
COc1ccc(Br)cc1C(=O)Nc1nc2ccc(F)cc2s1	107	113
CCc1ccc(NC(=O)Cn2c(=O)c(-c3ccccc3NC(C)=O)nc3ccccc32)cc1	105	104
CCCCOc1ccc(C2C(=O)N(C3CCCCC3)CC(=O)N2CCCC)cc1 (stereo not given)	108	105
Cc1ccc(NC(=O)CSc2nc3n[nH]c(C)c3c(=N)n2-c2ccccc2C)cc1C	110	119
O=C(CN(c1ccc(Cl)c(C(F)(F)F)c1)S(=O)(=O)c1ccccc1)Nc1cccnc1	110	107
CCN1CCN(c2ncc3c(n2)CCN(Cc2sccc2C)C3)CC1	110	106
Cc1ccccc1NC(=O)Cn1c(=O)n(CCC(=O)N2CCc3ccccc3C2)c(=O)c2ccccc21	105	109
CCCCOCc1cc(CN2CCN(c3cccc(Cl)c3)CC2)c(O)c2ncccc12	117	113
COc1ccc(CNC(=O)CCCN2C(=O)CSc3c2c(C)nn3-c2ccccc2)cc1	103	111
CCOC(=O)c1c(S(=O)(=O)N2CCCC(C(=O)Nc3ccccn3)C2)c(C)n(C)c1C (stereo not given)	105	106
Cc1ccc(C2=NN(CC(=O)NCCN(CC(C)C)CC(C)C)C(=O)CC2)cc1	110	104
CCOC(=O)c1cc(-c2ccccc2)n(CCCC(=O)Nc2cccc(Cl)c2C)c1C	102	98
CC1(C(=O)NC2CCCCC2)Cc2ccccc2C(=O)N1Cc1ccc(Cl)cc1 (stereo not given)	116	114
CCOC(=O)c1ccc(-n2c(CCC(=O)O)ccc2-c2ccccc2)cc1O	108	109
Cc1ccccc1OCCCn1c(-c2ccc(Cl)cc2)nc2ccccc2c1=O	106	103
CCc1ccccc1NC(c1nnc(-c2cccc(F)c2)o1)c1ccc(F)cc1Cl (stereo not given)	108	111
COc1ccc(/C=C(/C#N)c2nc(-c3cc4ccccc4oc3=O)cs2)cc1	103	108
Cc1cc(Nc2ccccc2C)c2cccc(C)c2n1	103	106
Cc1ccccc1CSc1nc2c([nH]c3ccccc32)c(=O)n1-c1ccccc1	98	96
CCc1ccccc1NC(=O)Cn1c(=O)n(Cc2ccc(OC)cc2)c(=O)c2oc3ccccc3c21	108	113
COc1ccccc1N1CCN(S(=O)(=O)CCNC(=O)C2CC(=O)N(c3ccccc3)C2)CC1 (stereo not given)	104	106
CSc1cccc(NC(=O)c2cccc(N3CCCS3(=O)=O)c2)c1	100	100
Cc1ccccc1Nc1cc(C(=O)NCCCN2CCN(c3cccc(Cl)c3)CC2)c2ccccc2n1	112	115
CCN(CC)c1ccc(NC(=O)Cn2nc(C)n3cccc3c2=O)c(C)c1	109	114
COC(=O)c1ccc2c(=O)n3nc(Nc4cc(OC)ccc4OC)sc3nc2c1	113	111
Cc1ccc(CN2CCSc3ccc(C(=O)N4CCN(c5ccccc5)CC4)cc32)cc1	104	111
Cc1ccc(CS(=O)(=O)c2cn(CC(=O)N(C)c3ccccc3)c3ccccc23)cc1	102	107
CCCOc1ccc(NC(=O)CC2C(=O)N(c3ccccc3)C(=O)N2Cc2ccc(F)cc2)cc1 (stereo not given)	104	108
COC(=O)c1ccccc1NC(=O)Cn1ncc2c(C)n(Cc3ccc(F)cc3)c(C)c2c1=O	108	108
Cc1cc(-c2ccc(C)c(S(=O)(=O)N(C)c3ccc(C)c(C)c3)c2)on1	110	110

Further structures
molecule	PV pol inh	PV pol inh intensity
Nc1c(-c2nc(-c3ccccc3)no2)nnn1CC(=O)Nc1cccc(F)c1	104	103
COc1ccc(N2CCN(C(=O)C(CC(C)C)NS(=O)(=O)c3ccc4nc(C)sc4c3)CC2)cc1 (stereo not given)	106	105
COc1ccc(-c2nc3c(c(SCC(=O)N(C)c4ccccc4)n2)Cc2cc(C)ccc2O3)cc1	111	113
CNC(=O)c1ccc2c(c1)N(Cc1cc(C)ccc1C)C(=O)c1ccccc1S2	110	108
O=C(Nc1ccc2c(c1)CCCN2C(=O)c1cccs1)c1c(F)cccc1F	110	110
O=C(CSc1nc(=O)[nH]c2c1CCC2)NCc1ccccc1Cl	109	109
CCN(C(=O)c1cc2c(s1)-c1c(C)cccc1OC2)c1cc(C)ccc1C	102	103
Cc1ccc(NC(=O)Cn2nnc3sc4c(c3c2=O)CCCC4)c(C)c1	107	110

Assay outcomes: PubChem, ICCB-Longwood Screening Facility, Harvard Medical School

An excerpt; rates above refer to the full screens.
